Six1-Eya2 blk: blocks human Six1 binding to Eya2; AID 651725; activity change, % (concentration not given with the values); Q15475+O00167; AlphaScreen GST-Six1/His-Eya2 binding, biochemical; hits give low values; control for the full effect not named in the record; hit rate 0.56% among 360,000; in the data active = activity change below about -65%; inconclusive = about -30% to -65%; inactive = above about -30%; also: % is scaled to controls: 0 for no effect and ±100 for the full control effect
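Six1/Eya2 binding was read as AlphaScreen signal after compounds were pinned into GST-Six1 plus His-tagged Eya2 (5X stock 250/500 nM) in pH 8.0 Tris/NaCl/TCEP buffer, beads added, then incubated 1 h, 37 C, dark.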
TRPML1 ag: agonists of human TRPML1 channel. hit rate 0.12% among 410,000. activation, % (concentration not given with the values). Q9GZU1. TRPML1-expressing cells, Ca2+ dye fluorescence, FDSS; host cell line not named in the record; reference of the full effect not given here. AID 624414; in the data active = activation above about 50%; inconclusive = about 30% to 50%; inactive = below about 30%; also: 0% is about no effect; the text of the record puts the active cut at 80%
Target sequence (Q9GZU1 whole entry, looked up): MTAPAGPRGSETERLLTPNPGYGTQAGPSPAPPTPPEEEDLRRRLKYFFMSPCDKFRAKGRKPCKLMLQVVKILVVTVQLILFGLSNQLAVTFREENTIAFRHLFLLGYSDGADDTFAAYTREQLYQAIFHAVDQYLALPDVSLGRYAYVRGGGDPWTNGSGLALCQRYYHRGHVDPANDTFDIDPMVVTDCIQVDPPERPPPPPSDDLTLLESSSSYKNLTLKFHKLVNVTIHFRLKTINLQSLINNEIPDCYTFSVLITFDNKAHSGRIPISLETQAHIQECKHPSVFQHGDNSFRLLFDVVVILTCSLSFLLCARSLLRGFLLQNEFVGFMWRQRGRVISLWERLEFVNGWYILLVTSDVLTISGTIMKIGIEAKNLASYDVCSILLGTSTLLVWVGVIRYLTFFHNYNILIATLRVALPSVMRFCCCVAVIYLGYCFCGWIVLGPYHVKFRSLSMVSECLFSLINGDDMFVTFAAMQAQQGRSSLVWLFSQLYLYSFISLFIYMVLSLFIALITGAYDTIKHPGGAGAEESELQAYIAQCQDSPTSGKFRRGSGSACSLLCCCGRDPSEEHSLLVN
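Kinetic FDSS Ca2+ read in Tet-induced TRPML1-DL cells (ABD Ca8 dye plus quencher, 45-90 min RT loading): baseline, then compound, then 110 s agonist window; EC80 agonist 54-4 at 4uM final added afterwards for a 110 s antagonist window.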
TRPML1 inh: human mucolipin-1 channel inhibition. Q9GZU1. TRPML1-inducible cells, Ca2+ dye fluorescence, FDSS; hits give low values; inhibition of EC80 agonist-evoked calcium signal. activity change, negative = inhibition, % (no concentration beside the values). hit rate 0.02% among 390,000. AID 624415; in the data active means activity change below about -50%; inconclusive means about -30% to -50%; inactive means above about -30%;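 also: stimulus is agonist 54-4 at its EC80 concentration; % is scaled to controls: 0 for no effect and ±100 for the full control effect; compound concentration not given in the record; the text of the record puts the active cut at -80%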
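Tet-induced TRPML1-DL cells loaded with Ca8 no-wash calcium dye were read kinetically on FDSS. Compound addition was followed by EC80 agonist 54-4 (4 uM final); inhibition was read over 110 s.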
PINK1 expr mod: changes PINK1 expression; PINK1 immunofluorescence, high-content cytometry, 24 h; Potency, µM (doses to about 76.6 µM), without a hit: at the top dose activation (PINK1 increase), hits mostly activators; hit rate 0.2% among 410,000; active = well fitted activation curve with a large enough effect; inconclusive = small, poorly fitted or top-dose-only effect; inactive = flat fitted curve, though single readings scatter; cell line not stated here;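 also: potency is read from the fitted curve at half-maximal effect; % of control where 0% means no effect; nearly all actives have a fitted effect of over 65% in size; a mitochondrial uncoupler was the plate control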
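Stable cell line, 250 cells/well, 12 h attachment; compounds pinned at 5 concentrations, 24 h; CCCP control. Fixed with nuclear dye, primary antibodies 12 h at 10 degrees C, secondary plus cell stain; laser-scanning cytometer read.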
D2 ag: agonists of human D2 dopamine receptor (beta-arrestin); activation, % (no concentration beside the values); hit rate 0.084% among 360,000; P14416; AID 624465; DiscoveRx PathHunter D2 beta-arrestin, luminescence, 90 min; 100% = 57 uM dopamine signal; in the data active = activation above about 40%; inconclusive = about 15% to 40%; inactive = below about 15%; also: compound concentration not given in the record; the text of the record calls up to 30% inactive
Target sequence (P14416 whole entry, looked up): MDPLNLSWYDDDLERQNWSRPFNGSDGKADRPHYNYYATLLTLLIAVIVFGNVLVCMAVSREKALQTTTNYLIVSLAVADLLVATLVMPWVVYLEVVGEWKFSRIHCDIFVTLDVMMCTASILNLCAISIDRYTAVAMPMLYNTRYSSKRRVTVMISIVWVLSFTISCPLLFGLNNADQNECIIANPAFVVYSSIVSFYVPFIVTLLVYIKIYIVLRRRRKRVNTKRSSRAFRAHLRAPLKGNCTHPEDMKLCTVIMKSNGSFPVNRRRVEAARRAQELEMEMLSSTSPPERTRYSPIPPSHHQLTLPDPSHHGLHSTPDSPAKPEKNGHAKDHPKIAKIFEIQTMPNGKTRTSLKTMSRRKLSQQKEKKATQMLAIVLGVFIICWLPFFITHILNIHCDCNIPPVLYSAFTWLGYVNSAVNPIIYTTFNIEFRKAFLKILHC
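Agonist mode: compounds alone added to overnight-plated D2 PathHunter cells for 90 min at 37 C, with 57 uM final dopamine (EC100) defining full response. Beta-arrestin recruitment detected by chemiluminescent reagent, read after 1 h at ambient temperature.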
D2 PAM: potentiates the human D2 dopamine receptor allosterically. hit rate 0.23% among 360,000. P14416. potentiation, % (concentration not given with the values). DiscoveRx D2 beta-arrestin cells, luminescence, 90 min; 100% = 57 uM dopamine signal. AID 624464; active = potentiation of 50% or more; inconclusive = 30% to 50%; inactive = 30% or less;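 also: compound concentration not given in the record; tested on top of an EC20 dose of dopamine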
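D2 cells co-treated with compound plus 50 nM dopamine (EC20) for 90 min at 37 deg C to detect potentiation. Beta-arrestin recruitment was read as enzyme-fragment luminescence after 1 h at ambient temperature. Full response was set by 57 uM dopamine.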
An asterisk follows results filed as active; ? = inconclusive; . = no result given; [ ] = another dose, or the depositor's remark. Rows were taken by chance, and some 1% of all compounds hit somewhere here.

Field names: A = Six1-Eya2 blk; B = TRPML1 ag; C = TRPML1 inh; D = PINK1 expr mod; E = D2 ag; F = D2 PAM
CCC(=O)Nc1ccccc1C(=O)OCc1cc(=O)n2cc(C)sc2n1
  A = .	B = 1.8	C = -23	D = -0.6%	E = .	F = .

CCOC(=O)c1cc(S(=O)(=O)Nc2ccc(F)cc2F)cn1C
  A = 0	B = 0.7	C = 4	D = -0.6%	E = 0.2	F = 3

C=CCn1c(CNC(=O)c2ccco2)nnc1SCC(=O)N1c2ccccc2Sc2ccccc21
  A = -9	B = 0.1	C = 34	D = 5.4%[38.3 µM]	E = 0.8	F = -12

CC(OC(=O)C1=Cc2ccccc2OC1)C(=O)NCC1CCCO1 (configuration not stated)
  A = -15	B = 7.6	C = -10	D = 2.1%	E = -2.6	F = -3

CCNc1nc(NC(C)C)nc(N(C#N)C(C)C(=O)N(CC)CC)n1 (configuration not stated)
  A = 2	B = 3.2	C = 26	D = 0.0%	E = -2.8	F = -5

CC1CCCN(c2ccc(C(=O)OCn3nnc4ccccc4c3=O)cc2[N+](=O)[O-])C1 (configuration not stated)
  A = -22	B = 0.4	C = -15	D = -2.6%	E = -1.1	F = -7

CCOc1ccc(C2=CSC3=NCCN23)cc1[N+](=O)[O-]
  A = -5	B = -1.7	C = -2	D = -2.2%	E = -1.8	F = -5

O=C(NCCc1ccc(F)cc1)N1CCOCC1
  A = -1	B = 0.1	C = -9	D = -0.8%	E = -2.4	F = 2

O=C(O)CCc1nnc(SCC(=O)Nc2ccc(Br)cc2)[nH]c1=O
  A = -2	B = -0.5	C = -12	D = 1.3%	E = 4.3	F = 2

CCOc1ccc(OCc2ccc(C(=O)NN=Cc3ccc[nH]3)cc2)cc1
  A = 0	B = 0.4	C = 0	D = ?	E = -4.5	F = -7

COc1ccc(Nc2nnc(SCC(=O)/C=C3/N(C)c4ccccc4C3(C)C)s2)cc1
  A = -27	B = 2.6	C = 19	D = -0.5%	E = 1.7	F = -13

Cc1cc(N2CCN(C)CC2)nc2ccc(NC(=S)NCc3cccs3)cc12
  A = -4	B = 0.4	C = 64	D = 0.9%	E = -0.4	F = -11

COc1ccc2nc(N(CCN(C)C)C(=O)c3ccc4ccccc4c3)sc2c1
  A = 21	B = 0.8	C = 59	D = 0.4%	E = -4.1	F = -5

Cc1cc(C)nc(SCC(=O)c2cc3ccccc3oc2=O)n1
  A = 1	B = 6.9	C = -1	D = 6.0%	E = -3.0	F = 7

CCC(=O)Nc1ccc2c(c1)nc1n2CCN(CCOC)C1
  A = -2	B = 1.6	C = 9	D = 1.1%	E = 1.1	F = -8

COc1cccc2cc(-c3nc(-c4cccs4)cs3)c(=O)oc12
  A = 4	B = 0.5	C = 21	D = 12%	E = -4.9	F = -21

Cc1cc(Sc2ccc(Cl)cc2)nc2ccccc12
  A = .	B = 0.7	C = -4	D = 6.6%	E = .	F = .

c1ccc(-c2n[nH]c(-c3ccccn3)n2)cc1
  A = -91*	B = 0.5	C = -4	D = -0.5%	E = -1.8	F = -8

COCCNC(=O)c1sc2nc(-c3ccccc3)cn2c1C
  A = 5	B = -0.4	C = -6	D = -0.7%	E = -2.5	F = -23

N#CC1=C(N)S[C@H](C(=O)C23CC4CC(CC(C4)C2)C3)[C@H]1c1ccncc1
  A = -1	B = 0.3	C = -6	D = -1.2%	E = 5.1	F = 14

CC(=O)N1CCN(c2ccccc2NC(=O)Cc2ccc(Cl)cc2)CC1
  A = 6	B = 1.2	C = -7	D = 3.6%	E = -0.3	F = -1

Cc1cccc(NC(=S)N/N=C(\c2ccccc2)C(C)C)c1
  A = -2	B = 1.5	C = 9	D = 3.5%	E = -5.1	F = -14

COc1cc(OC)cc(C(=O)N2CCN(C(=O)Cc3ccccc3)CC2)c1
  A = 2	B = -0.3	C = 0	D = 0.4%	E = -3.6	F = -4

COC(=O)CSCc1nc2ccccc2[nH]c1=O
  A = 4	B = -0.1	C = 4	D = 0.6%	E = -2.8	F = -4

COc1ccc(-n2c(C)nc(=O)c(-c3ccccc3)c2C)cc1
  A = 4	B = 2.1	C = 8	D = -2.5%	E = -1.1	F = 12

Three structures from above, arranged by formula weight, descending.
Field names: A = Six1-Eya2 blk; B = TRPML1 ag; C = TRPML1 inh; D = PINK1 expr mod; E = D2 ag; F = D2 PAM
C=CCn1c(CNC(=O)c2ccco2)nnc1SCC(=O)N1c2ccccc2Sc2ccccc21
  A = -9	B = 0.1	C = 34	D = 5.4%[38.3 µM]	E = 0.8	F = -12

COc1ccc(Nc2nnc(SCC(=O)/C=C3/N(C)c4ccccc4C3(C)C)s2)cc1
  A = -27	B = 2.6	C = 19	D = -0.5%	E = 1.7	F = -13

COC(=O)CSCc1nc2ccccc2[nH]c1=O
  A = 4	B = -0.1	C = 4	D = 0.6%	E = -2.8	F = -4

Continued:
Field names: A = Six1-Eya2 blk; B = TRPML1 ag; C = TRPML1 inh; D = PINK1 expr mod; E = D2 ag; F = D2 PAM
COc1ccc(CCN(C)C(=S)Nc2ccc(SC(F)F)cc2)cc1OC
  A = 0	B = 0.0	C = 3	D = 1.3%	E = -0.2	F = -1

COCCN(CC(=O)NCC1CCCO1)C(=O)CCC(=O)Nc1cc(C)ccn1 (configuration not stated)
  A = 5	B = 0.0	C = 4	D = 0.7%	E = -3.1	F = 13

C[C@H](CO)N1C[C@H](C)[C@@H](CN(C)C(=O)Nc2ccccc2)Oc2c(NC(=O)C3CCCCC3)cccc2C1=O
  A = -4	B = -0.6	C = 2	D = 0.2%	E = -2.7	F = -3

COc1ccc(Cn2ccn(Cc3cccc(Cl)c3)c(=O)c2=O)cc1
  A = .	B = 0.2	C = 8	D = 2.0%	E = .	F = .

Cn1ncnc1SCc1cn2cccnc2n1
  A = 26	B = 1.1	C = 2	D = -0.8%	E = -4.8	F = -2

CC(=O)c1cccc(-c2ccnc3c2CC(C(=O)Nc2ccccc2)O3)c1 (configuration not stated)
  A = 9	B = -1.0	C = .	D = 0.2%	E = 3.5	F = 0

COc1ccc2c(c1)c(C(=O)O)c(C)n2-c1ccc(Cl)cc1
  A = 0	B = .	C = .	D = -0.6%	E = -7.3	F = -7

CCOC(=O)C1=C(C)N(c2ccc(C)c(C)c2)C(=O)/C1=C\c1ccco1
  A = -5	B = 0.1	C = 16	D = 1.4%[38.3 µM]	E = -5.4	F = -11

COc1ccc(NC(=O)CNc2ccc(C#N)cc2)cc1
  A = -1	B = 0.6	C = 51	D = -0.7%	E = 2.5	F = -5

CN(C)S(=O)(=O)c1cccc(NC(=O)COC(=O)c2cn(-c3ccccc3)nc2-c2ccccc2)c1
  A = -16	B = 1.7	C = -22	D = 0.1%	E = -16	F = -19

CC(=O)Nc1cccc(NC(=O)CSc2nc(=O)n(Cc3ccncc3)c3c2CCC3)c1
  A = -2	B = -0.3	C = 21	D = -1.2%	E = -7.6	F = -11

CC(C)NC(=O)NC(=O)COC(=O)c1ccc([N+](=O)[O-])cc1Cl
  A = -5	B = -0.2	C = 1	D = 0.5%	E = 4.6	F = 11

COc1ccc2c(c1)c(=O)c(C(=O)c1ccc(C)cc1)cn2Cc1ccccc1F
  A = .	B = 3.4	C = 1	D = 1.6%	E = .	F = .

COc1ccc(NC(=O)CN(c2ccc(C(C)C)cc2)S(=O)(=O)c2c(C)noc2C)cc1OC
  A = 0	B = 0.1	C = -6	D = 3.1%	E = -0.8	F = -18

CCCCCCn1c(=O)n2n(c1=O)C[C@]1(OC(=O)NC3CCCC3)CN(S(=O)(=O)c3ccc(C)cc3)C[C@]1(O)C2
  A = -4	B = 2.3	C = -4	D = 19%	E = -8.9	F = 4

Cc1cc(Cl)ccc1OCC(=O)Nc1nc(-c2cccnc2)cs1
  A = 6	B = -0.6	C = -2	D = 1.2%	E = -4.8	F = -13

Cc1ccc(NC(=O)NCCOCCn2c(=O)oc3ccccc32)c(C)c1
  A = .	B = -0.6	C = 1	D = -0.3%	E = .	F = .

CCC(=O)NC(Nc1cc(C)ccn1)(C(F)(F)F)C(F)(F)F
  A = 7	B = 0.8	C = 3	D = ?	E = -0.9	F = -10

COC(=O)c1ccccc1NC(=O)C1CCCN(S(=O)(=O)c2ccccc2)C1 (configuration not stated)
  A = -4	B = 2.4	C = 82	D = 5.2%[38.3 µM]	E = 1.4	F = -2

CCOC(=O)c1c(NC(=O)COC(=O)c2cc(OC)c(OC)cc2[N+](=O)[O-])sc(C)c1CC
  A = 39	B = 0.3	C = 0	D = 7.0%	E = -4.5	F = -3

COc1ccc(-c2[nH]n(-c3ccc([N+](=O)[O-])cc3)c(=O)c2C=NCc2ccccc2)cc1
  A = 2	B = 4.5	C = 6	D = 6.8%	E = -1.4	F = -3

COc1cc2c(=O)n(Cc3ccccc3)c(=O)n(CC(=O)C(C)(C)C)c2cc1OC
  A = 4	B = -0.1	C = 10	D = 6.8%	E = -1.7	F = -3

CSc1nnc(N(CCC#N)CCC#N)s1
  A = 3	B = -0.1	C = 1	D = 0.5%	E = -1.0	F = -23

Cc1ccc(CNC(=O)C2CCC(=O)N(CCc3ccccc3)C2)s1 (configuration not stated)
  A = 3	B = -0.8	C = -5	D = -1.2%	E = -3.0	F = -13

CC1CCc2sc(NC(=S)NC(=O)c3ccccc3)c(C#N)c2C1 (configuration not stated)
  A = -16	B = 0.2	C = 3	D = ?	E = -1.3	F = -14

Compound	Six1-Eya2 blk	TRPML1 ag	TRPML1 inh	PINK1 expr mod	D2 ag	D2 PAM
COc1ccccc1NS(=O)(=O)c1ccc2nc(CCl)[nH]c2c1	10	-0.5	-7	0.1%	-0.8	-5
COc1cc(C(=O)OC2CCCCC2=O)cc(OC)c1C (configuration not stated)	-2	-0.7	0	69%[38.3 µM]	-5.8	-24
Cn1c(SCC(=O)c2ccccc2)nnc1-c1cnccn1	3	0.1	-7	-3.3%	0.9	-12
Cc1ccc(CNC(=O)CCCc2nc3ccccc3s2)cc1	2	-0.2	11	-1.5%	-4.6	1
O=C(Nc1ccc(OC(F)(F)F)cc1)c1noc2c1CCCC2	.	-0.2	17	-0.1%	.	.
Cc1noc(/C=C/N(C)C)c1S(=O)(=O)N1CCCC(C(=O)Nc2ccc3c(c2)OCO3)C1 (configuration not stated)	4	0.9	-8	2.9%	7.9	-3
Cc1ccc(CCNC(=O)c2ccc3nc(N4CCC(C)CC4)sc3c2)cc1	.	-0.1	-7	0.7%	.	.
CC1(C)CC(CCC(=O)Nc2ccccc2Cl)C(=O)O1 (configuration not stated)	4	0.0	9	2.4%[38.3 µM]	-1.1	0
Clc1ccc2scc(CN3CCCC3)c2c1	-2	-0.3	-1	0.7%	-2.3	-31

Whole records from above.
COc1cc(C(=O)OC2CCCCC2=O)cc(OC)c1C (configuration not stated) is entered as Six1-Eya2 blk: -2; TRPML1 ag: -0.7; TRPML1 inh: 0; PINK1 expr mod: 69%[38.3 µM]; D2 ag: -5.8; D2 PAM: -24
Cc1ccc(CNC(=O)CCCc2nc3ccccc3s2)cc1 is entered as Six1-Eya2 blk: 2; TRPML1 ag: -0.2; TRPML1 inh: 11; PINK1 expr mod: -1.5%; D2 ag: -4.6; D2 PAM: 1

Screens as filed in PubChem BioAssay.
